Screening results (PubChem BioAssay)
Rango dissoc inh – inhibitors of RanGTP-induced Rango-importin beta complex dissociation | Biochemical FRET Rango-importin beta, RanGTP-induced dissociation | Potency, µM (doses to about 46.1 µM), for the others: at the highest dose activity change, negative = inhibition | 0.071% of 340,000 active; active means falling FRET ratio curve, often poorly fitted, with flat reads before Ran was added; inconclusive means other falling curves, or compound fluorescence or quenching; inactive means flat or rising ratio curve;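 also: potency is read from the fitted curve at half-maximal effect; % of control where 0% means no effect; nearly all actives have a fitted effect of over 45% in size; -100% = wells without RanGTP and RCC1; the record marks most hits as doubtful in a second field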
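Compounds preincubate 5 min with complex of recombinant Rango and importin beta in PBS with 1 mM DTT. Ran (0.6 uM) loaded with 2 mM GTP plus 0.2 uM RCC1 starts dissociation; FRET is recorded 45 min later.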
Rango-impB inh – Rango-importin beta binding inhibition. Q14974. Rango CFP/YFP FRET sensor + importin beta, 45 min. Potency, µM (titrated, usually from 92.2 µM), for inactives: at the highest dose inhibition of complex formation. 0.031% of 340,000 active. AID 540263; active = rising FRET ratio curve, often small or poorly fitted; inconclusive = mostly compound fluorescence or quenching in the first reads; inactive = flat curves in all reads;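 also: potency is read from the fitted curve at half-maximal effect; 0% = DMSO wells and 100% = buffer wells lacking importin beta; nearly all actives have a fitted effect of over 15% in size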
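FRET biosensor (snurportin 1 IBB flanked by EYFP and cerulean), 50 nM, with compound 5 min, then 0.125 microM importin beta in PBS, 1 mM DTT, 0.02% Tween-20, 0.1% BSA. CFP/YFP ratio read after 45 min at room temperature; pre-read flags interference.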
miR-21 FLuc – miR-21 reporter, rising signal; HeLa miR-21 FLuc reporter, luciferase, 48 h; Potency, µM (highest dose often 38.3 µM), inactives show top-dose reporter change, positive = more light; 340,000 tested, under 10 active; AID 2288; active = well fitted rising curve with a large enough effect; inconclusive = small, poorly fitted or top-dose-only effect; inactive = no such curve, though single readings can be large or run the other way;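 also: % of control where 0% means no effect; miR-21 action dims this reporter so a rising signal means less miR-21 action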
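Using DMEM plus 10% FBS, HeLa miR-21-FLuc cells are incubated with test compounds (final up to about 40uM) for 48 hours; firefly luciferase signal is then imaged following reagent-mediated lysis.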
GLA inh pH 4.5 – blocks human alpha-galactosidase A at pH 4.5; P06280; purified enzyme, 4-MU-alpha-Gal fluorescence, pH 4.5; activity change, negative = inhibition, % at 105 µM; 230,000 tested, under 10 active; AID 1467; inconclusive = small, poorly fitted or top-dose-only inhibition, or a rising curve; inactive = flat fitted curve, though single readings scatter; no compound was filed as active;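 also: 0% = full activity with enzyme and -100% = basal without enzyme; dose as in the result columns while the protocol names 77 µM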
Target sequence (P06280 whole entry, looked up): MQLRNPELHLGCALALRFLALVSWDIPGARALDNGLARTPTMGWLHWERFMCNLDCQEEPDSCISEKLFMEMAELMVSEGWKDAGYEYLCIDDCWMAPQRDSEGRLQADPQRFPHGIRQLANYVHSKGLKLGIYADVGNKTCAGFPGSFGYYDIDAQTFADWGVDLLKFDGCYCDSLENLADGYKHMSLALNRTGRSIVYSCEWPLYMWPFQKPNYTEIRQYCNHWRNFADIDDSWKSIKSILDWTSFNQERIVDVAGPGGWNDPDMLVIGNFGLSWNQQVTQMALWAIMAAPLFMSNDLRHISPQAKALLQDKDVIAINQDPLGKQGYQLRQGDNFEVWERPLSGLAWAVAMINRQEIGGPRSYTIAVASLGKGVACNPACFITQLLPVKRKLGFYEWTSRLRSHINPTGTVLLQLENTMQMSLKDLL
An asterisk follows results filed as active.

`COc1cc(OC)c2c(C)c(Cl)c(=O)oc2c1` gave Rango dissoc inh 11%, Rango-impB inh 0.8% and miR-21 FLuc 5%.
`NC(=O)C1CCN(C(=O)CCC(=O)c2cccs2)CC1` gave Rango dissoc inh 0% and Rango-impB inh 1.2%.
Screening Cc1onc(-c2c(F)cccc2Cl)c1C(=O)c1ccccc1 returned Rango dissoc inh -9%, Rango-impB inh 4.0%, miR-21 FLuc 8% and GLA inh pH 4.5 -2.
Screening Cc1cccc(NC(=O)C2CCN(C(=O)c3ccc(F)cc3)CC2)n1 returned Rango dissoc inh -18% and Rango-impB inh -3.6%.
Screening CCOc1ccc(OCCSc2ccc(S(=O)(=O)N3CCN(C)CC3)cn2)cc1 returned Rango dissoc inh -10% and Rango-impB inh 1.9%.
Screening O=C(NC(=S)NCCC1=CCCCC1)c1cccnc1 returned Rango dissoc inh 19%, Rango-impB inh 0.6%, miR-21 FLuc -27% and GLA inh pH 4.5 -1.
Screening COc1cc2c(cc1OC)CN(C(=O)c1cc(S(=O)(=O)N3CCOCC3)c(Cl)cc1Cl)CC2 returned Rango dissoc inh 4%, Rango-impB inh -0.2% and miR-21 FLuc 10%.
`Cc1ccc(CN2CCN(/N=C/c3ccc(O)c(O)c3)CC2)cc1` gave Rango dissoc inh -9%, Rango-impB inh -4.8% and miR-21 FLuc 3%.
For O=C(COC(=O)Cc1ccc(S(=O)(=O)N2CCOCC2)s1)Nc1ccc2c(c1)OCO2 the results were Rango dissoc inh 15%, Rango-impB inh -0.1%, miR-21 FLuc 1% and GLA inh pH 4.5 -7.
CCc1ccc(NC(=O)CSc2nc(CSc3ccc(C)cc3)cc(=O)[nH]2)cc1 was read as Rango dissoc inh -14%, Rango-impB inh 1.0%, miR-21 FLuc 1% and GLA inh pH 4.5 -6.
CCn1ccc(C(=O)NCc2ccc3c(c2)OCO3)n1 was read as Rango dissoc inh 15%, Rango-impB inh 2.7% and miR-21 FLuc -9%.
For COc1ccc(-c2sc3ccccc3c2-c2ccc(OCCN(C)C)cc2)cc1 the results were Rango dissoc inh 3% and Rango-impB inh 3.9%.
Screening Cc1ccc(S(=O)(=O)NCCN2CCOCC2)s1 returned Rango dissoc inh -12%, Rango-impB inh 1.5% and miR-21 FLuc 1%.
`c1cnc2cc(-c3ccsc3)ncc2c1` gave Rango dissoc inh 20% and Rango-impB inh 8.7%.
Screening O=C(Nc1ccccc1N1CCOCC1)c1ccc([N+](=O)[O-])cc1 returned Rango dissoc inh -9%, Rango-impB inh -1.3%, miR-21 FLuc -2% and GLA inh pH 4.5 -18.
Screening COc1ccc(S(=O)(=O)Nc2cc3c4c(c2)CCN4C(=O)CC3)cc1OC returned Rango dissoc inh 20% and Rango-impB inh -3.7%.
Screening Cc1ccccc1NC(C)C(=O)N/N=C/c1c[nH]c2ccccc12 (configuration not stated) returned Rango dissoc inh 4%, Rango-impB inh 4.5%, miR-21 FLuc 7% and GLA inh pH 4.5 -1.
O=S(=O)(NC1CCCCC1N1CCN(c2ccc(F)cc2)CC1)c1ccc(Cl)cc1 (configuration not stated) was read as Rango dissoc inh 1%, Rango-impB inh -3.3% and miR-21 FLuc 6%.
CCC(C)N=C1CC(C)(C)CC(=O)/C1=C(/O)Cc1ccccc1 (configuration not stated) was read as Rango dissoc inh 14%, Rango-impB inh 2.0%, miR-21 FLuc -13% and GLA inh pH 4.5 15.
Screening O=C1OCc2cc(NC(=O)C34CC5CC(CC(C5)C3)C4)ccc21 returned Rango dissoc inh 9%, Rango-impB inh -1.0%, miR-21 FLuc -29% and GLA inh pH 4.5 3.
Screening Cc1ccc(/C(O)=C2\C(=O)C(=O)N(c3cc(C)on3)C2c2cccc(Br)c2)cc1 (configuration not stated) returned Rango dissoc inh -18%, Rango-impB inh inconclusive, miR-21 FLuc -1% and GLA inh pH 4.5 -7.
`CCN(C[C@H]1N[C@@](C)(C(=O)OC)[C@H]2C(=O)N(C)C(=O)[C@@H]12)C(=O)COc1ccccc1` gave Rango dissoc inh 14% and Rango-impB inh -1.6%.
`C/C(=N\NC(=O)c1cccc(S(=O)(=O)Nc2ccccc2Cl)c1)c1ccco1` gave Rango dissoc inh 1%, Rango-impB inh 0.8%, miR-21 FLuc -16% and GLA inh pH 4.5 -6.
Screening COC(=O)c1ccc(CC(=O)c2nc3ccccc3s2)cc1 returned Rango dissoc inh -9%, Rango-impB inh -3.8%, miR-21 FLuc -43% and GLA inh pH 4.5 8.
Screening CC(C)CCN1CC(C(=O)NCCC2=CCCCC2)CC1=O (configuration not stated) returned Rango dissoc inh 1%, Rango-impB inh 5.7%, miR-21 FLuc -31% and GLA inh pH 4.5 -7.
Screening FC(F)(F)c1ccc2c3n(nc2c1)CCN=C3c1ccc(Cl)cc1 returned Rango dissoc inh -13% and Rango-impB inh inconclusive.
For Cc1ccc(C2CC(=O)NC(SCCC(C)C)=C2C#N)cc1 (configuration not stated) the results were Rango dissoc inh 16%, Rango-impB inh -1.8%, miR-21 FLuc 0% and GLA inh pH 4.5 -4.
For CCn1cc(C(=O)Nc2cccc(C)c2)c(=O)c2ccc(C)nc21 the results were miR-21 FLuc 4% and GLA inh pH 4.5 3.
`Cc1cc(NC(=O)Nc2cc(F)ccc2C)n(C)n1` gave Rango dissoc inh -8%, Rango-impB inh -1.2% and miR-21 FLuc -4%.
`CCOC(=O)N1CCN(c2nc(-c3ccc(F)cc3)cs2)CC1` gave Rango dissoc inh -1%, Rango-impB inh 0.3%, miR-21 FLuc -23% and GLA inh pH 4.5 -7.
`CCN(CC)C(=O)Cn1nnc(-c2ccc(C)o2)n1` gave Rango dissoc inh 12%, Rango-impB inh -0.3%, miR-21 FLuc -2% and GLA inh pH 4.5 -2.
`COc1ccc(CNC(=O)c2ccncc2)cc1` gave Rango dissoc inh 1%, Rango-impB inh 0.2% and miR-21 FLuc 0%.
Screening COc1ccc(-c2sc3cc(OC)c(OC)cc3c2C#CCO)cc1 returned Rango dissoc inh 34% and Rango-impB inh -0.8%.
`COc1ccc(Nc2ncc3c(n2)CC(c2ccc(C)cc2)CC3=O)cc1` (configuration not stated) gave Rango dissoc inh 6%, Rango-impB inh 4.6%, miR-21 FLuc -6% and GLA inh pH 4.5 -4.
For Cc1ccc(/C=N/Nc2ccc(C(=O)O)cc2)o1 the results were Rango dissoc inh -1%, Rango-impB inh 0.7%, miR-21 FLuc -34% and GLA inh pH 4.5 -1.
Screening CCOC(=O)C(N)CSC1CC(=O)N(c2ccc(OC)cc2)C1=O (configuration not stated) returned Rango dissoc inh 13%, Rango-impB inh 6.1% and miR-21 FLuc -3%.
For Fc1ccccc1Cc1ccc(Cl)nn1 the results were Rango dissoc inh 2%, Rango-impB inh -2.2%, miR-21 FLuc -1% and GLA inh pH 4.5 2.
CC1(C)Cc2ccccc2-c2[nH]c(=S)[nH]c(=O)c21 was read as Rango dissoc inh 2%, Rango-impB inh 3.6% and miR-21 FLuc 7%.
`C=CCOc1nc2c(c(=O)n(C)c(=O)n2C)n1Cc1ccc(Cl)cc1Cl` gave Rango dissoc inh -10%, Rango-impB inh 0.9%, miR-21 FLuc -5% and GLA inh pH 4.5 -10.
For CCc1ccc(-c2cc(C)no2)cc1S(=O)(=O)Nc1ccccn1 the results were Rango dissoc inh -3%, Rango-impB inh 0.0% and miR-21 FLuc -9%.
Screening COc1ccc(C2NC(=O)c3ccccc3N2)cc1OC (configuration not stated) returned Rango dissoc inh 1%, Rango-impB inh -1.0%, miR-21 FLuc -33% and GLA inh pH 4.5 1.
Screening COc1ccc(CNc2nccs2)cc1OC returned Rango dissoc inh -11%, Rango-impB inh -0.4% and miR-21 FLuc -2%.
For O=C(COc1ccc([N+](=O)[O-])cc1)Nc1ccc(CN2CCOCC2)cc1 the results were Rango dissoc inh -4%, Rango-impB inh -0.5%, miR-21 FLuc -5% and GLA inh pH 4.5 1.
Screening COc1ccc(-n2nc(C(=O)NCC(=O)NCCCN3CC(C)CC(C)C3)c3ccccc3c2=O)cc1OC (configuration not stated) returned Rango dissoc inh -8%, Rango-impB inh inconclusive and miR-21 FLuc -2%.
C=CCNC(=O)COC(=O)c1ccc(Cl)c(S(N)(=O)=O)c1 was read as Rango dissoc inh 12%, Rango-impB inh 1.1%, miR-21 FLuc 0% and GLA inh pH 4.5 0.
O=C(c1cccc(S(=O)(=O)N2CCN(c3ccc(F)cc3)CC2)c1)N1CCCC(C(F)(F)F)C1 (configuration not stated) was read as Rango dissoc inh 16% and Rango-impB inh 4.2%.
For CCCCn1c(N)c(N(CC(C)C)C(=O)CCNC(=O)c2ccc(Cl)cc2)c(=O)[nH]c1=O the results were Rango dissoc inh -8% and Rango-impB inh -2.9%.
NS(=O)(=O)c1ccc(NS(=O)(=O)c2ccc(NC(=O)c3ccc(-c4ccccc4)cc3)cc2)cc1 was read as Rango dissoc inh 3%, Rango-impB inh -4.6%, miR-21 FLuc -9% and GLA inh pH 4.5 2.
Screening CCCC12CN(C(=O)c3ccc(OC)cc3)CC(C)(CN(C(=O)c3ccc(OC)cc3)C1)C2=O returned Rango dissoc inh -9%, Rango-impB inh -0.3%, miR-21 FLuc 4% and GLA inh pH 4.5 -8.
`Cc1ccc2cc3c(NS(=O)(=O)c4cccc5nonc45)nn(CC(C)C)c3nc2c1` gave Rango dissoc inh 2%, Rango-impB inh 1.7% and miR-21 FLuc -5%.
Screening CC(C(=O)OCC(=O)Nc1ccc(S(=O)(=O)N2CCCCC2)cc1)N1C(=O)c2ccccc2C1=O (configuration not stated) returned Rango dissoc inh -7%, Rango-impB inh -4.0%, miR-21 FLuc 2% and GLA inh pH 4.5 -9.
`COc1cc2c(cc1OC)C(C(=O)NCc1ccco1)C(c1cccs1)N(C)C2=O` (configuration not stated) gave Rango dissoc inh 6%, Rango-impB inh -3.9%, miR-21 FLuc -13% and GLA inh pH 4.5 -14.
Screening Cc1ccc(S(=O)(=O)NCC(=O)NCc2cc(=O)n(C)c(=O)n2C)cc1 returned Rango dissoc inh -9%, Rango-impB inh -0.8% and miR-21 FLuc -2%.
For CC(C)C(NC(=O)c1ccc(F)cc1)C(=O)N1CCOCC1 (configuration not stated) the results were Rango dissoc inh -8% and Rango-impB inh 1.2%.
`Cc1ccc(-c2nonc2NC(=O)c2ccco2)cc1` gave Rango dissoc inh -3%, Rango-impB inh 0.3% and miR-21 FLuc -3%.
For CCOC(=O)C1=C(CC)Nc2ccccc2N/C1=N\S(=O)(=O)c1ccc2ccccc2c1 the results were Rango dissoc inh 9%, Rango-impB inh inconclusive, miR-21 FLuc 12% and GLA inh pH 4.5 -3.
COc1ccc(CCC(=O)NCCc2nc3ccccc3[nH]2)cc1 was read as Rango dissoc inh 9%, Rango-impB inh 1.2%, miR-21 FLuc -1% and GLA inh pH 4.5 1.
Screening COc1ccc(CCC(=O)N2CCCc3ccccc32)cc1 returned Rango dissoc inh -28%, Rango-impB inh -0.1% and miR-21 FLuc -14%.
`Cc1cccc(NC(=O)CSc2nnc(CNC(=O)c3ccc(S(=O)(=O)N(C)C)cc3)n2-c2cccc(C)c2)c1` gave Rango dissoc inh -6%, Rango-impB inh -2.5%, miR-21 FLuc -10% and GLA inh pH 4.5 -4.

5 records drawn at random from those above:
Screening FC(F)(F)c1ccc2c3n(nc2c1)CCN=C3c1ccc(Cl)cc1 returned Rango dissoc inh -13% and Rango-impB inh inconclusive.
C=CCNC(=O)COC(=O)c1ccc(Cl)c(S(N)(=O)=O)c1 was read as Rango dissoc inh 12%, Rango-impB inh 1.1%, miR-21 FLuc 0% and GLA inh pH 4.5 0.
`Cc1ccc2cc3c(NS(=O)(=O)c4cccc5nonc45)nn(CC(C)C)c3nc2c1` gave Rango dissoc inh 2%, Rango-impB inh 1.7% and miR-21 FLuc -5%.
Screening COC(=O)c1ccc(CC(=O)c2nc3ccccc3s2)cc1 returned Rango dissoc inh -9%, Rango-impB inh -3.8%, miR-21 FLuc -43% and GLA inh pH 4.5 8.
`Cc1ccc(-c2nonc2NC(=O)c2ccco2)cc1` gave Rango dissoc inh -3%, Rango-impB inh 0.3% and miR-21 FLuc -3%.

This is a subset, so the mix of outcomes need not match the whole.
